# miR-21 FLuc = miR-21 reporter, rising signal; HeLa miR-21 FLuc reporter, luciferase, 48 h; Potency, µM (doses to about 38.3 µM), without a hit: at the top dose reporter change, positive = more light; 340,000 tested, under 10 active; AID 2288; active = well fitted rising curve with a large enough effect; inconclusive = small, poorly fitted or top-dose-only effect; inactive = no such curve, though single readings can be large or run the other way;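 further: % of control where 0% means no effect; miR-21 action dims this reporter so a rising signal means less miR-21 action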
#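 HeLa cells stably expressing CMV-driven firefly luciferase with a downstream miR-21 binding sequence, endogenously expressing miR-21, were treated with titrations (up to about 40uM final) for 48 hours at 37 degree Celsius. Luciferase luminescence was read after lysis.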
# * marks the source's active call; other numbers are inactive results; ? = inconclusive. A portion of the library; the hit share may differ from the screen's.
SMILES,miR-21 FLuc
CSc1ccc(C2C(C(=O)Nc3ccccc3)=C(C)Nc3nc4ccccc4n32)cc1 (stereo not drawn),0%
CCOC(=O)c1ccccc1NC(=O)CN(c1cc(C(F)(F)F)ccc1Cl)S(C)(=O)=O,8%
COc1ccc(-c2noc(N3CCC(C(=O)Nc4cccc(C)c4C)CC3)n2)cc1,-12%
COC(=O)c1ccccc1NC(=O)CN(c1ccc(Cl)cc1)S(=O)(=O)c1ccc(OC)cc1,2%
COc1ccc(C)cc1Nc1nc(-c2cccc(Cl)c2)c2c(n1)-c1ccccc1OC2,-10%
Cc1cc(C)cc(NC(=O)N2CCC(CN3CCc4ccccc4C3)CC2)c1,-2%
COc1ccccc1C1=NS(=O)(=O)N(C)C(C(=O)Nc2cc(OC)c(OC)c(OC)c2)=C1,-31%
CCc1ccc(OC(=O)c2sc3ncn(Cc4cccc(F)c4)c(=O)c3c2C)cc1,0%
COc1ccccc1N(CC(=O)Nc1ccc2c(c1)OCO2)S(=O)(=O)c1ccc(C)cc1,-1%
CCOc1ccccc1NC(=O)Cn1c(=O)n(CCCC(=O)NCCOC)c(=O)c2cc(OC)c(OC)cc21,8%
Cc1ccc(CNC(=O)CCCCn2c(=O)c3ccccc3n(Cc3c(C)cc(C)cc3C)c2=O)cc1,0%
CCOC(=O)C(CC)Sc1ncnc2sc3c(c12)CCCC3 (stereo not drawn),-6%
Cc1cccc(-n2nnc(-c3nc(-c4cccs4)no3)c2N)c1,-65%
COCCCNC(=O)CCn1c(=O)c2ccccc2n(CC(=O)Nc2c(C)cc(C)cc2C)c1=O,-4%
Cc1ccc2cc3cc(C(=O)N(C)c4ccccc4C)oc3nc2c1,-52%
Cc1ccc(NC(=O)C2CCN(S(=O)(=O)c3cc(-c4noc(C)n4)ccc3C)CC2)c(C)c1,?
Oc1c(C(c2ccccc2)N2CCN(Cc3ccccc3)CC2)sc2nc(-c3ccco3)nn12 (stereo not drawn),-1%
COc1cccc(NC(=O)CN2C(=O)C3(SCC(=O)N3c3cc(C)cc(C)c3)c3ccccc32)c1 (stereo not drawn),14%
CCN(C(=O)c1ccc2c(c1)N(Cc1cccc(Cl)c1)C(=O)c1ccccc1S2=O)c1ccccc1 (stereo not drawn),?
COc1ccccc1CNC(=O)c1ccc(-c2nc(CS(=O)(=O)c3ccc(C)cc3)c(C)o2)cc1,11%
COc1ccc(Cn2c(=O)n(-c3ccc(F)c(Cl)c3)c(=O)c3c2c2cc(OC)ccc2n3C)cc1,0%
Cc1cc(S(=O)(=O)Nc2ccc3oc4c(c3c2)CCCC4)ccc1Cl,21%
COc1ccc(CCN2CCC(CNC(=O)c3cnn(-c4ccccc4)c3C3CCN(C(=O)OC(C)(C)C)CC3)CC2)cc1,22%
Cc1cc(C)c(Cn2c(=O)n(CCCCC(=O)NCc3ccccc3Cl)c(=O)c3ccccc32)c(C)c1,0%
Cc1ccc2oc(=O)c3cc(C(=O)Nc4cccc(C#N)c4)sc3c2c1,-2%
COc1ccc(OCCn2nnc3sc4c(c3c2=O)CCC(C(C)(C)C)C4)cc1 (stereo not drawn),-21%
CCc1cccc(NCc2ccccc2-c2nnc(-c3ccccc3Cl)o2)c1,-53%
O=C(NCc1ccc(Cl)cc1)C(=O)NCC(c1ccc2c(c1)OCO2)N1CCOCC1 (stereo not drawn),-2%
COc1ccc(NC(=O)Cn2c(-c3ccc(F)cc3)cc(C(C)=O)c2C)c(OC)c1,-9%
Cc1cc(NC(=O)c2cccn2-c2nnc(N3CCCCC3)s2)ccc1Br,-9%
Cc1nn(C)c2c1c(C(F)(F)F)cc(=O)n2CC(=O)N1CCCCC1C (stereo not drawn),-5%
CCOC(=O)c1cc(CC)sc1NC(=O)COc1ccccc1C,-2%
COc1ccc(CCNC(=O)c2cnc3ccc(C)cn3c2=O)cc1OC,-10%
Cc1cc(C)cc(NC(=O)N2CCC(N3CCN(Cc4ccccc4)C(=O)C3=O)CC2)c1,-2%
COc1ccc(OC)c(C2CC(=O)c3c([nH]c(C(=O)OC4CCC(C)CC4)c3C)C2)c1 (stereo not drawn),15%
CCc1cccc(-n2c(=O)c3cccnc3n2CC(=O)Nc2ccc(OC)c(Cl)c2)c1,13%
Cc1cccc(N2CCN(C(=O)Cn3c(-c4cccs4)cc4ccccc43)CC2)c1C,9%
CCOc1ccc(NC(=O)Cn2c(=O)n(-c3ccccc3)c(=O)c3ccc(C(=O)NCc4ccc5c(c4)OCO5)cc32)cc1,3%
Cc1ccc(Nc2c(-c3ccco3)nc3ccc(C)cn23)cc1,-12%
Cn1cnc(S(=O)(=O)N2CCC(C(=O)N3CCN(c4ccccc4F)CC3)CC2)c1,1%
Cc1cc(S(=O)(=O)Nc2cc3c(cc2N2CCOCC2)n(C)c(=O)n3C)ccc1F,-18%
Cn1nc(C(=O)NCc2ccc(Cl)cc2)c2c1-c1ccccc1SC2,-12%
COc1cc(NC(=O)CSc2nc(-c3ccc(C)cc3)nc3c2Cc2ccccc2O3)cc(OC)c1,-3%
Cc1nn(C)c2c1c(C(F)(F)F)cc(=O)n2C(C)C(=O)N1CCN(c2ccccc2)CC1 (stereo not drawn),?
NC(=O)C1CCN(C(=O)c2cccc(NC(=O)c3nsc4ccccc34)c2)CC1,-22%
COC(=O)c1sc2cccc(F)c2c1S(=O)(=O)Nc1ccc(N(C)C)cc1,4%
COc1ccc(NC(=O)CCSc2nc(-c3ccc(OC)cc3)cc(C(F)(F)F)n2)cc1,-5%
COc1ccc(NC(=O)c2c(C)oc3ccc(O)c(CN4CCOCC4)c23)cc1,1%
COCCCN1C(=O)c2oc3ccccc3c(=O)c2C12C(=O)N(C)c1ccccc12 (stereo not drawn),-1%
Cc1ccc(CSc2nc3cccnc3n2Cc2ccc(C(=O)NCc3ccco3)cc2)cc1,-14%
O=C(NC1CCCCC1)c1ccc2c(c1)N(Cc1cccc(Cl)c1)C(=O)c1ccccc1S2(=O)=O,-6%
Cc1ccn2c(=O)cc(CSc3nnc(C)s3)nc2c1,-17%
CCCn1cnc2cc(NCc3ccccc3OCC)ccc21,-11%
COc1cc(CNCCCSc2nnnn2C)cc(Br)c1OC,-5%
Cc1ccc(Nc2c3c(nc4ccccc24)CCC3)cc1F,?
Cc1ccc(-n2c(=O)c3ccc(C(=O)NCc4ccco4)cc3n(Cc3cccc(Cl)c3)c2=O)cc1,-3%
CC(C)c1ccc(C(=O)Nc2cccc3cccnc23)cc1,-39%
COc1cccc(-c2ccnc3c(-c4ccccc4)c(C)nn23)c1,-24%
CCOC(=O)N1CCc2c(sc3c2c(=O)n(-c2ccc(CC)cc2)c(=O)n3Cc2cccc(OC)c2)C1,3%
CCOC(=O)c1cccc(NC(=O)CC2C(=O)N(c3ccc(F)cc3)C(=O)N2C(C)C)c1 (stereo not drawn),-4%
# (further entries)
SMILES,miR-21 FLuc
Cc1ccc(CSc2nnc3[nH]c(=O)cc(C)n23)cc1,-18%
COCCNC(=O)CSc1nc(-c2ccccc2C)nc2c1c(=O)n(C)c(=O)n2C,2%
O=C(Cc1ccc(F)cc1)N1CCC(c2nc3c(nnn3Cc3ccc(F)cc3)c(=O)[nH]2)CC1,-1%
COc1ccc(CNc2nc3c(-c4ccccc4)nnn3c3ccccc23)cc1,-22%
COc1ccc(C)cc1NC(c1nnc(-c2ccccc2)o1)c1ccc(F)cc1Cl (stereo not drawn),8%
COc1ccc(-c2cc(C(F)(F)F)n3nc(C(=O)Nc4sc5c(c4C#N)CCC(C)C5)cc3n2)cc1OC (stereo not drawn),-10%
CC1CCCN(c2nc3c(S(=O)(=O)c4ccc(C(C)C)cc4)nnn3c3ccsc23)C1 (stereo not drawn),3%
CC1=C(C(=O)Nc2cccnc2)C(c2ccc(F)cc2)n2nc(SCc3ccccc3)nc2N1 (stereo not drawn),-1%
O=C(c1ccco1)n1nc(-c2ccccc2)nc1NCc1ccc(Cl)cc1,-5%
Cc1c(Cl)cccc1-c1ccc(/C=C(\C#N)c2nc3ccccc3[nH]2)o1,-23%
COc1ccc(OC)c(NC(=O)c2cnc(Nc3ccc(C)c(Cl)c3)c3ccccc23)c1,15%
COc1ccc(-c2cc(C(=O)Oc3ccc(C#N)cc3)no2)cc1,-11%
CC1CCN(S(=O)(=O)c2ccc3c(c2)c(=O)c(C(=O)N2CCN(c4cccc(Cl)c4)CC2)cn3C)CC1,-1%
CSCCC(NS(=O)(=O)c1ccc2c(c1)oc(=O)n2C)C(=O)NCc1ccc(Cl)cc1 (stereo not drawn),-3%
CCCCc1ccc(-n2nc3ccc(NC(=O)c4cc5ccccc5o4)cc3n2)cc1,4%
COc1ccc(CCNC(=O)CCn2c(=O)c3cccn3c3cccnc32)c(OC)c1OC,-6%
CCC(=O)N1CCc2cc(S(=O)(=O)NC(CC(C)C)C(=O)NCc3cccc(OC)c3)ccc21 (stereo not drawn),0%
CCOC(=O)c1ccccc1NC(=O)Cc1c(C(=O)O)c(C)cn1C,-8%
CCc1ccc(OCC2c3cc(OC)c(OC)cc3CCN2C(=O)c2ccc(S(=O)(=O)N3CCCC3)cc2)cc1 (stereo not drawn),-3%
O=S(=O)(Nc1ccc(-c2ccc(N3CCCCCC3)nn2)cc1)c1cccc(C(F)(F)F)c1,0%
CC(C)COc1cccc(C(=O)Nc2ccc(-c3nc4ncccc4o3)cc2)c1,0%
COc1ccccc1CNC(=O)C1CCN(c2nn3c(=O)cc(C)nc3s2)CC1,-10%
Cc1ccc2oc3c(c(=O)c2c1)C(c1ccc(F)cc1)N(Cc1ccc2c(c1)OCO2)C3=O (stereo not drawn),0%
CCOC(=O)c1c(NC(=O)CS(=O)(=O)c2ccc(C)cc2)sc2c1CCC(C)C2 (stereo not drawn),-3%
Cc1cccc(-c2nc3c4ccccc4nc(NCc4ccc(Cl)cc4)n3n2)c1,-12%
CCc1ccc(CNC(=O)c2ccc3c(Cl)c4c(nc3c2)CCCC4)cc1,-6%
CCOc1ccc(NC(=O)COc2ccc(S(=O)(=O)NC3CCCCC3)cc2)cc1,24%
CCOc1ccc(CCNC(=O)c2cn(-c3ccc(OC)cc3)c(=O)c3ccccc23)cc1OCC,-14%
Cc1ccccc1-c1nc(CN2CCC(C(=O)NCc3ccccc3Cl)CC2)c(C)o1,0%
CCOC(=O)c1ccc(NC(=O)Nc2c[nH]c(=O)[nH]c2=O)cc1,3%
Cc1c(CCNC(=O)c2ccc(Br)o2)sc2nc(-c3ccc(F)cc3)nn12,16%
CCOC(=O)c1cccc(NC(=O)NC(C)c2c(-n3cccc3)sc3c2CCN(C)C3)c1 (stereo not drawn),-1%
COc1ccc(-c2cc(C(=O)NC(C)c3ccccc3)c3cc(C(C)C)ccc3n2)cc1 (stereo not drawn),-1%
O=C(CCS(=O)(=O)c1nc(-c2cccs2)cc(C(F)(F)F)n1)Nc1cc(Br)ccc1O,?
CCS(=O)(=O)N1CC(=O)N(c2cc(C)ccc2C)C(C)(C(=O)NC2CCCCC2)C1 (stereo not drawn),-2%
Cc1ccc2c(=O)cc(C(=O)Nc3sc4c(c3C(=O)NCC3CCCO3)CCCC4)oc2c1 (stereo not drawn),0%
O=c1[nH]c(SCc2c(F)cccc2Cl)nc2c1CCC2,3%
CC(=O)c1ccc(NC(=O)CSc2c(C(C)C)cnc3c2c(=O)n(C)c(=O)n3C)cc1,5%
Cc1ccc(-n2ncc3c(NC4CCCCC4)ncnc32)cc1,-2%
CCOc1ccccc1CNC(=O)c1ccc2c(c1)sc1nc(-c3cccc(OC)c3)cn12,-12%
COc1ccc(NC(=O)Nc2ccccc2OCc2cc(=O)n3ccccc3n2)c(OC)c1,0%
Cc1ccc(N2C(=O)c3n[nH]c(C)c3C2c2ccc(Cl)cc2)cc1 (stereo not drawn),9%
Cc1ccc(N(C)C(=O)C2CCN(S(=O)(=O)c3ccc4c(c3)CCCN4C(=O)C3CCC3)CC2)cc1,0%
Cc1ccccc1C(=O)NC1(C(F)(F)F)C(=O)Nc2c1c(=O)[nH]c(=O)n2CCc1ccccc1 (stereo not drawn),0%
Fc1ccc(CN2CCc3nc(N4CCN(c5ccccc5F)CC4)ncc3C2)c(F)c1,2%
Cc1ccc2oc3c(c(=O)c2c1)C(c1cccc(O)c1)N(CCCN1CCOCC1)C3=O (stereo not drawn),-3%

# In the list so far, these have an aryl thioether with sulfur outside any ring:
SMILES,miR-21 FLuc
CSc1ccc(C2C(C(=O)Nc3ccccc3)=C(C)Nc3nc4ccccc4n32)cc1 (stereo not drawn),0%
CCOC(=O)C(CC)Sc1ncnc2sc3c(c12)CCCC3 (stereo not drawn),-6%
COc1cc(NC(=O)CSc2nc(-c3ccc(C)cc3)nc3c2Cc2ccccc2O3)cc(OC)c1,-3%
COc1ccc(NC(=O)CCSc2nc(-c3ccc(OC)cc3)cc(C(F)(F)F)n2)cc1,-5%
Cc1ccc(CSc2nc3cccnc3n2Cc2ccc(C(=O)NCc3ccco3)cc2)cc1,-14%
Cc1ccn2c(=O)cc(CSc3nnc(C)s3)nc2c1,-17%
COc1cc(CNCCCSc2nnnn2C)cc(Br)c1OC,-5%
Cc1ccc(CSc2nnc3[nH]c(=O)cc(C)n23)cc1,-18%
COCCNC(=O)CSc1nc(-c2ccccc2C)nc2c1c(=O)n(C)c(=O)n2C,2%
CC1=C(C(=O)Nc2cccnc2)C(c2ccc(F)cc2)n2nc(SCc3ccccc3)nc2N1 (stereo not drawn),-1%
O=c1[nH]c(SCc2c(F)cccc2Cl)nc2c1CCC2,3%
CC(=O)c1ccc(NC(=O)CSc2c(C(C)C)cnc3c2c(=O)n(C)c(=O)n3C)cc1,5%

# Given with tabs: part of the list above
SMILES	miR-21 FLuc
Cc1c(CCNC(=O)c2ccc(Br)o2)sc2nc(-c3ccc(F)cc3)nn12	16%
CCOC(=O)c1cccc(NC(=O)NC(C)c2c(-n3cccc3)sc3c2CCN(C)C3)c1 (stereo not drawn)	-1%

# Source: PubChem
